# LANA-H2B inh – blockers of LANA interaction with H2A/H2B – biochemical, FP readout, HTS, primary screen; Protein LANA1 (Human herpesvirus 8 type P (isolate GK18)), Q9QR71; inhibition, % (test concentration not listed); 0.6% of 320,000 active; cell-free LANA-H2A/H2B peptide, fluorescence polarization; AID 2629, 2010; in the data active means inhibition mostly above about 10%, no sharp cut-off; inactive means mostly below about 6.7%;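 further: stock transfer was 7.5 nL into about 10 µL; 0% = median of vehicle wells and 100% = median of positive control wells; one replicate is shown; the record names a cut of 25% in any replicate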
# Target sequence (Q9QR71 whole entry, looked up): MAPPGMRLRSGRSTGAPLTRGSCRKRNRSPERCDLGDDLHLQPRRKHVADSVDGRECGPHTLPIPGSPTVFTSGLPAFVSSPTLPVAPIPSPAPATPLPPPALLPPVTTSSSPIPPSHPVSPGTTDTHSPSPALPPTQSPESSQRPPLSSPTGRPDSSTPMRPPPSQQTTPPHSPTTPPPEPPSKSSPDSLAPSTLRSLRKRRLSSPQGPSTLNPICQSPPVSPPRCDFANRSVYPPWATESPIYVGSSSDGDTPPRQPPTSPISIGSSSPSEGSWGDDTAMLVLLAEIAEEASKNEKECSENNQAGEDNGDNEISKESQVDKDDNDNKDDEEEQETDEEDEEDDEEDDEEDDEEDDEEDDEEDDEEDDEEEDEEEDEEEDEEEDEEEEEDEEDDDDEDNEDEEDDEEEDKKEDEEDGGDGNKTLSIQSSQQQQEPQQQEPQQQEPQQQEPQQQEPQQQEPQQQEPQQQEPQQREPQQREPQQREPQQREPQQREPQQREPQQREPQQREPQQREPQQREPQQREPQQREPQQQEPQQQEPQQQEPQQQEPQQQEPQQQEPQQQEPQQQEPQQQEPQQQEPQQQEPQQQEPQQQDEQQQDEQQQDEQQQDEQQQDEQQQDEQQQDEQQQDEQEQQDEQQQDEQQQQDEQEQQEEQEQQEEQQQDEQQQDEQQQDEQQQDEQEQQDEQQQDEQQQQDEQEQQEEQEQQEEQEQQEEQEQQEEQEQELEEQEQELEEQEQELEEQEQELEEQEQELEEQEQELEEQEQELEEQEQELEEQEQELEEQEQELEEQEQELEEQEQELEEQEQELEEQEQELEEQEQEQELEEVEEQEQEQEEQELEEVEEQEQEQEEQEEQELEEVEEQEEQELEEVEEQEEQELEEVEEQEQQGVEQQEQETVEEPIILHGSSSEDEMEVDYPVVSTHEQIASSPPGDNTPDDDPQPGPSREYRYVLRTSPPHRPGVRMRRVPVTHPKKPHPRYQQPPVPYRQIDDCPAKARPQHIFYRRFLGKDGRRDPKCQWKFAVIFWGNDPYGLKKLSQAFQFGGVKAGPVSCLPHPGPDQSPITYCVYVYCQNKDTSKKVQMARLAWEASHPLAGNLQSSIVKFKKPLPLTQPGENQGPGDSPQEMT
# Vif TR-FRET – inhibitors of Vif binding to APOBEC3G peptide, primary screen, biochemical, TR-FRET, GST-Vif 1-94, biotin-A3G peptide, dose response retest (AID 1117319); Virion infectivity factor (Human immunodeficiency virus type 1 group M subtype B (isolate …; TR-FRET GST-Vif / biotin-A3G peptide binding; higher % means a stronger effect; test concentration not given here; strong numbers were not always called active; inhibition, %, or IC50 in µM where a hit was titrated; 0.57% of 260,000 active;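 active means above the screen mean plus three standard deviations and confirmed in dose response; inconclusive means results disagree or hit not tested in dose response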;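 further: Vif residues 1-94 fused to GST binding biotinylated APOBEC3G peptide 110-148; 0% = full assay without inhibitor and 100% = GST in place of GST-Vif; retest series ran down from 100 µM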
# AF4-AF9 inh – inhibitors of AF4 peptide binding to AF9, primary screen, biochemical, AlphaScreen, biotin-AF4 peptide, FLAG-AF9, single point; 0.47% of 350,000 active; inhibition, % at 10 µM; AID 651704, 2012;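 active means every replicate reaching a set inhibition limit, whatever the replicate mean, cut at about 25% in these data; inconclusive means mean inhibition reaches that limit but some replicates miss it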;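 further: 0% = plate neutral control median and 100% = total signal loss; the record names both 10 and 1 µM as test concentration; the first replicate is given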
# A1 inh – caspase 3/7 activation in MEF A1-2A-BIM cells, primary screen, A1 inhibitor project, cell-based, luminescence, HTS; Caspase-Glo 3/7 luminescence, 3 h; percent of clofoctol response, vehicle zero; caspase activation, % (no concentration beside the values); 0.066% of 330,000 active;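 active means over half of replicate activation scores above 10%, or exactly half above 10 with the replicate mean above 10; inconclusive means replicate mean below 10 yet half the replicates above 10; inactive means over half of replicates below 10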;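 further: wells of about 30 µL received 50 nL stock; many hits fall short of the cut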
# Calb FLC – C. albicans growth inhibition with fluconazole, primary screen, CaCi-2 strain, Alamar Blue fluorescence; growth inhibition, % (concentration not given with the values); 0.57% of 300,000 active; C. albicans CaCi-2 (fluconazole-resistant clinical isolate) + fluconazole, 48 h;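 active means most replicates above 75%; inconclusive means exactly half above 75%; inactive means most below 75%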;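 further: all wells also contain fluconazole at 8 µg/ml as a sub-toxic cotreatment; 0% = median of DMSO wells and 100% = median of geldanamycin control wells; wells of about 8 µL received 7.5 nL stock; the first replicate is given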
# RanGTP-Impb inh – inhibitors of RanGTP-importin-beta interaction, primary screen, biochemical, FRET, CFP-Ran, YFP-importin-beta, homogeneous | cell-free CFP-Ran/YFP-importin-beta FRET ratio | inhibition, % (concentration not given with the values) | 1.1% of 300,000 active | AID 2216, 2009;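 active means most replicates above 15%; inconclusive means exactly half above 15%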;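 further: 0% = DMSO wells and 100% = Ran loaded with GDP instead of GTP; wells of about 40 µL received 100 nL stock; the first replicate is given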
# T cruzi repl – inhibitors of intracellular T. cruzi growth, primary screen, luminescence, NIH3T3 host cells; T. cruzi beta-gal in NIH3T3, 90 h; inhibition, % (test concentration not listed); 1.4% of 300,000 active;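 active means mean inhibition across valid replicates above about 55%, limit read from the data; inconclusive means mean below that limit but half or more replicates reach it; inactive means mean below it, under half of replicates reach it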;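 further: signal also drops with host cell toxicity which is not excluded here; 0% = plate median of DMSO wells and 100% = zero luminescence signal; higher percent means less beta-gal luminescence so fewer parasites; stock transfer was 50 nL into about 50 µL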
# Beta apoptosis – inhibitors of cytokine-induced beta cell apoptosis, primary screen, luminescence; INS-1E cytokine-induced death, ATP luminescence, 48 h; percent of positive-control rescue, neutral wells zero; protection from apoptosis, % (concentration not given with the values); 0.8% of 300,000 active; AID 435005, 2010;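 active means all replicates at 75% or more, or half of them and the mean; inconclusive means half reach 75% but not the mean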;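 further: 0% = cytokine-treated negative control wells and 100% = positive control rescue; higher means more ATP so stronger rescue from cytokine killing; wells of about 40 µL received 100 nL stock; the first replicate is given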
# Active calls of the source: *; ? = inconclusive; . = no result given; + = active, no number. Random draw from the library (roughly 4.3% active in at least one column).
SMILES,LANA-H2B inh,Vif TR-FRET,AF4-AF9 inh,A1 inh,Calb FLC,RanGTP-Impb inh,T cruzi repl,Beta apoptosis
CCC(Cc1ccccc1)NC(=O)C1CC1 (stereo not drawn),-1.4,.,-11,-1.2,7,-1.3,-4,-7
O=C(CSc1ccc2nnc(CCNC(=O)c3ccccc3)n2n1)NCc1ccc(F)cc1,0.2,.,0.4,-0.5,0,2.6,7,.
CCOc1ccc(CN(C)CC(=O)NCc2ccc(F)cc2)cc1,-1.7,-1%,-1.5,1.0,-3,1.6,0,-8
COc1cc(C(=O)NCCCN(C)C)ccc1OCC(=O)Nc1cccc(C(F)(F)F)c1,3.1,1%,2.3,1.1,-3,-1.1,57*,.
Cc1nnc(Sc2nc3c(c(=O)[nH]c(=O)n3C)n2CCc2ccccc2)s1,-3.9,.,-1.1,0.4,-9,2.7,-3,5
COc1ccc(CC(=O)Nc2ccc(NC(=O)c3ccc(Br)cc3)cc2)cc1OC,5.8,.,1.1,-0.8,-2,5.1,-1,-3
COCc1cnc(C)nc1N,4.6,-6%,1.0,0.9,-36,-0.2,-12,.
COc1ccc(NC(=O)CCn2nnc(-c3ccc(C)cc3)n2)cc1OC,2.1,5%,.,0.6,4,1.7,16,3
COc1ccc(NC(=O)CN2c3cccc4cccc(c34)S2(=O)=O)cc1,-3.1,26%,.,0.3,-14,0.8,-3,-1
O=C(COC(=O)c1ccccc1OCc1ccc(Cl)cc1)NCC1CCCO1 (stereo not drawn),-2.2,3%,-0.7,-0.4,.,.,.,-5
COC(=O)COc1cc(OCC(=O)OC)c2c(C)c(Cl)c(=O)oc2c1,-3.0,-7%,.,0.2,-3,-1.8,-9,1
Cc1ccsc1C(=O)OCC(=O)NCCNC(=O)COC(=O)c1sccc1C,-0.4,6%,-1.2,0.8,12,-3.1,-5,0
Cc1ccccc1C(=O)NCCNc1ccc([N+](=O)[O-])cc1,0.9,1%,3.3,0.3,1,?,-1,1
COc1ccc(CNc2ncnc3cc(Cl)ccc23)cc1OC,.,-211%,-1.3,.,-1,5.1,17,.
O=C(NCCc1ccccc1)C1CCCN(c2ncnc3c2nc2n3CCCCC2)C1 (stereo not drawn),-2.5,.,-1.1,0.1,-3,1.6,9,8
COC(=O)CC1C(=O)NCCN1C(=O)Nc1ccc(Cl)cc1 (stereo not drawn),5.5,1%,.,-0.2,2,-0.2,0,-5
CCN(CC)c1ccc2c(C)c(-c3ccc(N)cc3)c(=O)oc2c1,-4.4,14%,.,-0.1,12,136*,14,4
CCOc1cc(CNCCO)cc(Br)c1OCc1ccc(Cl)cc1,1.5,0%,.,0.5,-43,1.3,2,36
O=C(Nc1ccc2c(c1)OCCO2)c1ccoc1,1.7,-7%,-0.9,-3.2,0,-1.4,-31,-6
Cc1ccc(Oc2cc(NC(=O)CCCn3nc([N+](=O)[O-])cc3C)cc([N+](=O)[O-])c2)cc1,-1.2,3%,.,0.3,17,-3.0,28,12
COC(=O)c1ccc(/C=N/OCC(=O)NC2CCCC(C)C2C)cc1 (stereo not drawn),4.5,-5%,.,-0.4,2,-5.8,4,-25
COCCNC(=O)C1CC(c2ccccc2[N+](=O)[O-])=NO1 (stereo not drawn),-3.7,31%,.,0.5,-2,7.9,-10,-1
COC(=O)Nc1ccc(S(=O)(=O)N2CCCCC2C(=O)O)cc1 (stereo not drawn),-9.9,.,-2.7,0.2,-12,3.7,-4,-4
CC1CCCC(C)N1C(=O)CSc1nccc(=O)[nH]1 (stereo not drawn),0.4,.,2.8,0.3,29,-3.0,-6,-2
Cc1nc2sc(C(c3ccco3)N3CCC4(CC3)OCCO4)c(O)n2n1 (stereo not drawn),-1.0,.,.,0.4,-9,3.5,-5,-3
O=C(c1ccco1)N1CCN(c2ncnc3sc4c(c23)CCC4)CC1,0.5,21%,.,-0.4,-3,-7.9,-5,8
Cc1ccc(S(=O)(=O)Nc2cccc(C(=O)N3CCN(c4ccccc4O)CC3)c2)cc1F,2.8,-4%,-11,-0.7,.,1.5,11,-1
C=CCn1c(=O)c2ccccc2n2c(SCC(=O)N(C)C)nnc12,.,3%,-0.2,.,3,1.4,-10,.
Cc1cnc(C(=O)Nc2ccc(S(=O)(=O)N(C(C)C)C(C)C)cc2)cn1,-3.5,2%,-0.7,0.8,-4,20*,0,-4
CC(C)(C)NC(=O)NC(=O)CN1C(=O)NC(C)(c2ccccc2)C1=O (stereo not drawn),3.9,3%,-0.1,2.1,5,0.6,3,-6
Cc1onc(-c2c(F)cccc2Cl)c1C(=O)N(Cc1ccccc1)C(C)C,-1.9,-17%,-1.8,0.0,-14,-3.5,3,.
Fc1ccc(-c2ncc3ccccn23)cc1,-0.3,.,-2.5,-1.2,9,1.4,2,-1
Cc1ccccc1NC(=O)c1ccccn1,-0.4,-8%,6.7,-2.2,1,-2.1,-22,-6
O=C(O)CCCCCNS(=O)(=O)c1c(Cl)cccc1Cl,0.5,10%,.,-0.1,-16,-1.6,-6,5
O=C(Nc1ccccc1C(=O)N1CCCCCC1)c1ccccc1Cl,-5.0,-12%,-2.9,0.1,-4,1.5,-2,2
COCCCN1C(=O)c2ccc(C(=O)Nc3ccc(OC)cc3)cc2C1=O,-5.5,0%,.,-4.1,26,2.7,0,7
Cc1cccc(-n2nnnc2SCn2nnc3ccccc3c2=O)c1,-0.6,-3%,.,0.7,-8,-0.4,1,2
CCC/C(C)=N\Nc1nc2c(c(=O)n(C)c(=O)n2C)n1C,1.6,5%,13,1.3,4,1.1,-6,5
CC(=O)N1CCCc2cc(S(=O)(=O)N3CCCC(C(=O)N4CCN(c5ccccc5)CC4)C3)ccc21 (stereo not drawn),-2.1,.,3.5,0.3,-5,0.3,2,32
Cc1sc2ncnc(N3CCN(C(=O)c4ccco4)CC3)c2c1C,2.7,-5%,0.7,0.0,-4,0.3,8,.

# Part of the list above in a different format:
compound	LANA-H2B inh	Vif TR-FRET	AF4-AF9 inh	A1 inh	Calb FLC	RanGTP-Impb inh	T cruzi repl	Beta apoptosis
Cc1cnc(C(=O)Nc2ccc(S(=O)(=O)N(C(C)C)C(C)C)cc2)cn1	-3.5	2%	-0.7	0.8	-4	20*	0	-4
CC1CCCC(C)N1C(=O)CSc1nccc(=O)[nH]1 (stereo not drawn)	0.4	.	2.8	0.3	29	-3.0	-6	-2
Fc1ccc(-c2ncc3ccccn23)cc1	-0.3	.	-2.5	-1.2	9	1.4	2	-1
COCCCN1C(=O)c2ccc(C(=O)Nc3ccc(OC)cc3)cc2C1=O	-5.5	0%	.	-4.1	26	2.7	0	7
Cc1nc2sc(C(c3ccco3)N3CCC4(CC3)OCCO4)c(O)n2n1 (stereo not drawn)	-1.0	.	.	0.4	-9	3.5	-5	-3
O=C(c1ccco1)N1CCN(c2ncnc3sc4c(c23)CCC4)CC1	0.5	21%	.	-0.4	-3	-7.9	-5	8
CC(C)(C)NC(=O)NC(=O)CN1C(=O)NC(C)(c2ccccc2)C1=O (stereo not drawn)	3.9	3%	-0.1	2.1	5	0.6	3	-6

# The results go on.
SMILES,LANA-H2B inh,Vif TR-FRET,AF4-AF9 inh,A1 inh,Calb FLC,RanGTP-Impb inh,T cruzi repl,Beta apoptosis
COc1ccc(C(C)=O)cc1COC(=O)Cc1cc(OC)c(OC)c(OC)c1,5.8,.,1.5,0.2,4,0.1,17,0
COC(=O)COc1ccc(/C=N/NC(=O)c2ccc(N(Cc3ccccc3)S(C)(=O)=O)cc2)cc1,-4.1,.,0.9,-0.3,2,0.2,8,-2
O=C(N/N=C/c1c[nH]c2ccccc12)C1CC(=O)N(c2ccccc2)C1 (stereo not drawn),-4.7,-7%,3.7,0.6,-11,4.6,-6,6
COc1cc(Cl)c(C)cc1NC(=O)CN1CCCCCC1,0.5,.,-0.1,0.2,6,-1.2,14,2
Cc1ccc(O)c(-c2cc(C(=O)Nc3cccnc3)[nH]n2)c1,5.6,4%,3.6,-1.6,-7,9.0,-25,-4
Cc1cccc(N(CC(=O)N=Nc2c(O)[nH]c3ccccc23)S(C)(=O)=O)c1C,0.1,-2%,.,0.1,27,-1.2,16,-2
COc1ccc2c(=O)c3c(=O)n(Cc4ccco4)c(C(C)C)nc3oc2c1,-7.5,-5%,.,0.4,-2,4.1,11,1
O=C(NCCc1ccc(Cl)cc1)C1CC(=O)N(C2CCCCC2)C1 (stereo not drawn),1.5,.,-6.1,1.8,-2,-2.3,-4,.
Cc1ccc(-c2[nH]ncc2CNCCc2cnn(-c3ccccc3)c2)cc1C,-0.4,-2%,4.5,1.2,-25,2.2,7,40
CC1=Nc2cc(C(=O)NCCCN3CCOCC3)ccc2Sc2c(C)ccc(C)c21,-2.7,.,5.8,-1.0,3,1.3,20,-9
COc1c(Br)cc(C(N)=O)cc1OCc1ccccc1,3.4,2%,-4.2,-0.1,1,-3.0,-8,4
O=C(NC1CC1)C1CCN(c2ncnc3c2sc2cccc(F)c23)CC1,2.9,-100%,-1.5,0.0,-1,-1.0,11,0
COc1ccc(OC)c(-c2csc(NC(=O)CN3C(=O)C4CCCCC4C3=O)n2)c1 (stereo not drawn),.,-1%,-1.6,0.6,1,3.5,-1,-4
CCCc1ccc(C(=O)CCC(=O)O)cc1,+,4%,.,-0.5,-2,-0.6,-2,-5
O=C(CSCc1ccccc1Cl)Nc1ccc2c(c1)OCCO2,1.5,?,.,-0.6,49,-4.6,-21,-1
CC1CN(C(=O)c2ccn(C)n2)CC(C)O1 (stereo not drawn),.,-7%,-17,0.3,-9,1.3,8,-5
Oc1cccc(/C=N/Nc2cccc3cccnc23)c1,.,8%,2.8,.,0,6.9,-12,.
CC(=O)n1c2ccccc2c2nc(NC(C)C)sc21,-1.9,?,.,0.2,-2,?,0,-9
CC(=O)Nc1ccc(NC(=O)COC(=O)/C(=C/c2ccccc2)n2nnnc2C)cc1,-1.2,5%,0.0,1.2,-1,5.1,-41,.
Cc1ccc(NCc2nnc(SCC(=O)Nc3cccc(O)c3)n2CC2CCCO2)c(C)c1 (stereo not drawn),5.2,15%,.,0.1,5,3.2,-8,-3
O=C(Nc1ccccc1)C1CCN(C(=O)c2ccco2)CC1,5.0,.,-1.4,-0.1,1,-2.0,0,-4
N#CCN1C(=O)C2CCCN2c2ccc(S(=O)(=O)N3CCOCC3)cc21 (stereo not drawn),0.9,5%,0.2,0.1,2,0.7,-3,-2
Cc1cc(S(=O)(=O)N2CCOCC2)ccc1OCC(=O)Nc1cccc(C(F)(F)F)c1,3.1,-7%,-5.5,-1.0,-4,3.1,-1,-8
O=C(c1ccc(CSc2nc3ccncc3[nH]2)cc1)N1CCCCCC1,-2.1,?,-0.2,-0.9,-5,5.4,4,10

# Screening results deposited in PubChem BioAssay by several laboratories.
